Six1-Eya2 blk – inhibitors of human Six1/Eya2 interaction; 360,000 tested, 0.56% active; AlphaScreen GST-Six1/His-Eya2 binding, biochemical; hits give low values; control for the full effect not named in the record; AID 651725; activity change, % (concentration not given with the values); Q15475+O00167; in the data active = activity change below about -65%; inconclusive = about -30% to -65%; inactive = above about -30%; note: % is set by controls: 0 for no effect and ±100 for the full control effect
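Six1/Eya2 binding was read as AlphaScreen signal after compounds were pinned into GST-Six1 plus His-tagged Eya2 (5X stock 250/500 nM) in pH 8.0 Tris/NaCl/TCEP buffer, beads added, then incubated 1 h, 37 C, dark.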
D2 potentiator – human D2 receptor positive allosteric modulation. 360,000 tested, 0.23% active. potentiation, % (test concentration not listed). AID 624464. P14416. DiscoveRx D2 beta-arrestin cells, luminescence, 90 min; 100% = 57 uM dopamine signal; active = potentiation of 50% or more; inconclusive = 30% to 50%; inactive = 30% or less;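 note: compound concentration not given in the record; tested on top of an EC20 dose of dopamine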
Target sequence (P14416 whole entry, looked up): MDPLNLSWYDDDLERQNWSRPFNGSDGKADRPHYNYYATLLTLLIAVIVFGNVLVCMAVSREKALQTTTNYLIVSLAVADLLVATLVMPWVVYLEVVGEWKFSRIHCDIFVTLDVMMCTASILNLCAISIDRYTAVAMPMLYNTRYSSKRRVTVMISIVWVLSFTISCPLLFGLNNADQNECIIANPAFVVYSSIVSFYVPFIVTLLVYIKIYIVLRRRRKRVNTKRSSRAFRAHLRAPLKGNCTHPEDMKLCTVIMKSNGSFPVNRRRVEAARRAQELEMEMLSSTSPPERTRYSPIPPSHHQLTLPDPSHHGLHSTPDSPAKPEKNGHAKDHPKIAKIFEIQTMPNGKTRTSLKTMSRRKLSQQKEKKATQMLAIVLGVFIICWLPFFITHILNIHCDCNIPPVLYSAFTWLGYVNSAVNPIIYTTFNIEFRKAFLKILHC
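PathHunter D2 cells, attached overnight at 37 deg C, received compound in DMSO plus dopamine at EC20 (50 nM final) for 90 min at 37 deg C. Beta-arrestin recruitment was read as luminescence after 1 h with detection reagent at ambient temperature.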
TRPV1 potentiator – human TRPV1 potentiation; 320,000 tested, 0.02% active; TRPV1-expressing cells, Fluo-8 calcium influx, capsaicin EC20 potentiation; host cell line not named in the record; control for the full effect not named in the record; AID 540277; Q8NER1; potentiation, % at 8.33 µM; active means potentiation above 80%; inconclusive means 30% to 80%; inactive means below 30%; note: 0% is about no effect
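Fluo-8 calcium influx in TRPV1-expressing cells, kinetic read (ex 480/em 520 nm). Compound added and read 3 min for agonist activity, followed by capsaicin at EC20 final and 2 min further read for enhancement.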
CtBP-E1A inh – inhibitors of CtBP/E1A interaction; AID 651724; activity change, % (concentration not given with the values); 340,000 tested, 0.49% active; AlphaScreen GST-E1A/His-CtBP binding, 1536-well; hits give low values; control for the full effect not named in the record; in the data active means activity change below about -65%; inconclusive means about -30% to -65%; inactive means above about -30%; note: % is set by controls: 0 for no effect and ±100 for the full control effect
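GST-E1A and His-tagged CtBP (125 nM each as 5X stock) were preincubated with pin-transferred compound for 2 h at 37 °C in the dark, then glutathione donor and nickel acceptor beads were added for 1 h before AlphaScreen reading.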
D2 agonist – human D2 receptor agonism in beta-arrestin assay. DiscoveRx PathHunter D2 beta-arrestin, luminescence, 90 min; 100% = 57 uM dopamine signal. AID 624465. 360,000 tested, 0.084% active. activation, % (no concentration beside the values); in the data active = activation above about 40%; inconclusive = about 15% to 40%; inactive = below about 15%; note: compound concentration not given in the record; the text of the record calls up to 30% inactive
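DiscoveRx PathHunter D2 beta-arrestin cells (2,100/well) attached overnight, then compound-stimulated 90 min at 37 C in HBSS/10 mM HEPES/0.1% Tween-20 buffer; beta-galactosidase complementation read by luminescence after 1 h at ambient temperature. Dopamine 57 uM final (EC100) as control.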
Sfp PPTase inh – inhibitors of Bacillus subtilis Sfp phosphopantetheinyl transferase | Q9F4F7 | 310,000 tested, 3.5% active | Biochemical Sfp PPTase activity, qHTS | Potency, µM, inactives show max response, negative = inhibition, actives largely listed as inhibitors | AID 1490; active = well fitted inhibition curve with a large enough effect; inconclusive = small, poorly fitted or top-dose-only effect, or another doubt; inactive = no such curve, though single readings can be large or run the other way;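 note: the enzyme is Sfp with the accession as filed and its product quenches rhodamine fluorescence; potency is the fitted concentration of half-maximal effect; 0% = enzyme reaction without inhibitor and -100% = no enzyme wells; top concentration of the series not given in the record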
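Step 1, compound plus 15 nM Sfp-PPTase, 15 min, room temperature. Step 2, add rhodamine-CoA (5 uM) and BHQ-2-YbbR (12.5 uM). Step 3, read 525/598 nm fluorescence at 0 and 30 min.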
PINK1 modulator – modulators of PINK1 expression | PINK1 immunofluorescence, high-content cytometry, 24 h | Potency, µM (highest dose often 76.6 µM), for the others: top-dose activation (PINK1 increase), usual class: activators | 410,000 tested, 0.2% active; active = well fitted activation curve with a large enough effect; inconclusive = small, poorly fitted or top-dose-only effect; inactive = flat fitted curve, though single readings scatter; cell line not stated here;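 note: potency is the fitted concentration of half-maximal effect; % of control where 0% means no effect; nearly all actives have a fitted effect of over 65% in size; a mitochondrial uncoupler was the plate control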
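Stable cell line treated 24 h with compounds at 5 concentrations (CCCP controls), then fixed and immunostained for PINK1 plus nuclear and cell stains; PINK1 immunofluorescence quantified by laser-scanning microplate cytometry.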
Active calls of the source: *; ? = inconclusive; nt = not tested or not shown; & = joins results of further samples; [ ] = another dose, or the depositor's remark. An unsorted share of the library. About 3.7% of those tested had a hit in this group.

SMILES | Six1-Eya2 blk | D2 potentiator | TRPV1 potentiator | CtBP-E1A inh | D2 agonist | Sfp PPTase inh | PINK1 modulator
COc1ccc(NC(=O)CSc2nc(O)cc(=O)n2C)cc1 | -26 | -13 | 11 | -5 | -1.9 | -18% | 1.2%
COc1cc(/C=N/NC(=O)c2ccc3c(c2)OCO3)ccc1O | 0 | -14 | -8 | 22 | -6.6 | 11% | 2.3%
Cn1cccc1CC(=O)N/N=C/c1cccc([N+](=O)[O-])c1 | -12 | -12 | -5 | -17 | -1.6 | -5% | 0.6%
COCCn1nnnc1C(c1cc2ccc(OC)cc2[nH]c1=O)N1CCN(C2CCCCC2)CC1 (stereo not drawn) | 2 | -13 | 10 | 1 | 4.0 | -6% | -4.2%[38.3 µM]
C=CCC(=O)OCCCCCCOc1ccc(C(=O)O)cc1 | 5 | -5 | -9 | -2 | -0.4 | 3% | -3.1%
CSc1nnnn1-c1c(C)cccc1C | -4 | 3 | -22 | nt | -1.2 | 18% | -0.3%
CCN(CC)S(=O)(=O)c1cccc(C(=O)N[C@H](C(=O)OCC(N)=O)C(C)C)c1 | 9 | -3 | -16 | -2 | -8.0 | 7% | 1.9%
O=C(Nc1cccnc1)c1sc(Nc2ccccc2F)nc1-c1ccccc1 | 6 | -11 | -7 | -3 | -2.6 | -6% | 2.3%
Cc1ccc(S(=O)(=O)N(CC(=O)N=Nc2c(O)[nH]c3ccccc23)c2ccc(C)c(C)c2)cc1 | -26 | -20 | ? | -20 | 2.5 | 13% | 2.4%
O=[N+]([O-])c1cc([N+](=O)[O-])c(Oc2c(Cl)cccc2Cl)cc1NN1CCCCC1 | -5 | -2 | -13 | -1 | -3.2 | 8% | 4.6%
CC(C)NC(=O)C1CCN(C2CCN(Cc3nc(C(C)C)cs3)CC2)CC1 | 0 | -2 | -7 | 7 | -1.5 | 5% | -0.1%
COc1ccc(N2CCN(C(=O)c3cccn4c(=O)c5ccccc5nc34)CC2)cc1 | 1 | -5 | 8 | -1 | -1.7 | 22% | 5.7%
COCCNC(=O)c1ccc(CSc2nc3ccccc3s2)cc1 | -1 | -1 | 2 | -6 | -0.3 | -17% | -0.6%
O=C1N[C@@H](Cc2ccccc2)COC(=O)[C@H](Cc2ccc(F)cc2)CC/C=C/C[C@@H]1CC(=O)N(CCO)Cc1ccccc1 | -1 | -15 | nt | -1 | -3.6 | nt | -0.8%
OC(CN1CCN(Cc2ccc3c(c2)OCO3)CC1)c1c[nH]c2ccccc12 (stereo not drawn) | -17 | -15 | -1 | -17 | -1.4 | 11% | -2.2%
COc1cc(C)ccc1NC(=O)Cc1csc(NC(=O)Nc2ccccc2OC)n1 | -14 | 3 | -2 | -5 | -0.2 | nt | -2.4%
COc1ccccc1N1CCN(C(c2cc3cc(C)ccc3[nH]c2=O)c2nnnn2C2CCCC2)CC1 (stereo not drawn) | -1 | -13 | 2 | 11 | -1.3 | ? | ?
O=C(NCc1ccco1)c1ccccc1F | -3 | -11 | 3 | 2 | -1.9 | 1% | 1.8%
CCOc1ccc(-n2c(SCC(=O)Nc3ccc(OC)cc3)nc3c(c2=O)SCC3)cc1 | 8 | -2 | 6 | 0 | -0.8 | 21% | 0.7%
COC(=O)c1cccc(C23CC4(C2)[C@H](CN(Cc2cccnc2)[C@@H]4c2ccccc2)C3c2ccccc2)c1 (stereo partly drawn) | -21 | -16 | 27 | 0 | -5.8 | ? | ?
O=C(OCC(=O)N1CCOCC1)c1ccc2c(c1)OCCO2 | 5 | -13 | -5 | 4 | -1.4 | 14% | 2.2%
Cn1c(SCC(=O)NNC(=O)c2ccccc2Br)nnc1C(F)(F)F | -2 | -3 | -4 | 0 | -1.6 | nt | 0.7%
COC(=O)C1C(=O)c2c([nH]c(C(=O)OC3CCCCCC3)c2C)CC1C (stereo not drawn) | -2 | -3 | 4 | -1 | 3.3 | -5% | 13%
CN(Cc1ccccc1)S(=O)(=O)c1nnc(NC(=O)c2ccc(F)cc2)s1 | 3 | -7 | ? | -8 | -0.8 | 27% | -0.8%
O=C(Cn1ncc2c(=O)oc3ccccc3c21)NCCN1CCN(c2ccccc2F)CC1 | 6 | -6 | 8 | 11 | -1.9 | -4% | 0.4%

3 compounds already listed, ordered by the value under PINK1 modulator, smallest number first.
compound | Six1-Eya2 blk | D2 potentiator | CtBP-E1A inh | D2 agonist | Sfp PPTase inh | PINK1 modulator
COCCNC(=O)c1ccc(CSc2nc3ccccc3s2)cc1 | -1 | -1 | -6 | -0.3 | -17% | -0.6%
Cn1c(SCC(=O)NNC(=O)c2ccccc2Br)nnc1C(F)(F)F | -2 | -3 | 0 | -1.6 | nt | 0.7%
Cc1ccc(S(=O)(=O)N(CC(=O)N=Nc2c(O)[nH]c3ccccc23)c2ccc(C)c(C)c2)cc1 | -26 | -20 | -20 | 2.5 | 13% | 2.4%

(further entries)
SMILES | Six1-Eya2 blk | D2 potentiator | TRPV1 potentiator | CtBP-E1A inh | D2 agonist | Sfp PPTase inh | PINK1 modulator
CSc1ccc(C(=O)C2CCCN(C(=O)c3cc(C)n(C)n3)C2)cc1 (stereo not drawn) | 3 | -7 | -7 | -17 | 1.3 | 10% | -0.9%
CC(=O)C1=C(c2ccccc2)OC(N)=C(C#N)C1c1ccccc1F (stereo not drawn) | 1 | 20 | 1 | 6 | 0.8 | -11% | 1.6%
OC[C@@H]1CN(Cc2ccc(Cl)cc2)C[C@H](n2cnc3c(NC4CC4)ncnc32)O1 | -1 | -1 | nt | 7 | -3.9 | nt | 1.9%
C=CCNC(=O)CN(c1ccc(F)c(Cl)c1)S(C)(=O)=O | 2 | -7 | -4 | 10 | -1.8 | 7% | 3.9%[38.3 µM]
CCC(C)NC(=O)CN1C(=O)C(CC)Sc2ccccc21 (stereo not drawn) | 7 | 2 | 5 | 4 | -6.2 | 14% | 3.4%
COc1cccc(C(=O)NCC(c2cccs2)N2CCOCC2)c1 (stereo not drawn) | -1 | -27 | 0 | -4 | -7.2 | nt | 2.0%
O=C(CN1CCOCC1)N/N=C/c1ccc(-c2ccc(Br)cc2)o1 | -1 | -5 | nt | 0 | -3.2 | -29% | 0.9%
COc1cccc(CNC2CCCCCCC2)c1OC | 1 | -8 | -17 | 5 | 4.7 | -4% | 1.8%
O=C(Nc1ccc2c(c1)CCC2)c1cc(F)cc(F)c1 | 15 | 6 | -3 | -2 | -3.3 | nt | 4.0%
O=C(c1ccc(S(=O)(=O)N2CCCCC2)cc1)N1CCN(c2ccccc2F)CC1 | 6 | 0 | -2 | -3 | 2.4 | 12% | 1.8%
CCOc1ccc(/C=C2\SC(=S)N(CCC(=O)Nc3ccc(C(=O)O)cc3)C2=O)cc1 | -3 | -2 | -15 | -30 | -1.7 | 6% | 0.5%
CNC(=O)COC(=O)/C=C/c1cccc(F)c1 | 0 | -4 | -19 | nt | -1.7 | 5% | 1.2%
COC(=O)CNc1nc(Cl)nc(Nc2ccc(Cl)cc2)n1 | 1 | -2 | 5 | nt | 5.9 | 19% | -0.5%
CC(C)c1nnc(NC(=O)CCC(=O)Nc2ccc3cn[nH]c3c2)s1 | 3 | -17 | nt | 4 | -2.8 | 3% | -1.2%
Cc1cc(C(F)(F)F)nn1Cc1n[nH]c(=S)n1-c1cccc(Cl)c1 | 4 | -10 | -10 | 14 | -0.5 | -8% | 3.2%[38.3 µM]
CCOC(=O)c1c(CSC(=N)N)n(-c2ccc(C)cc2)c2cc(Br)c(OC(C)=O)cc12 | -13 | -7 | -10 | -3 | 0.3 | 45µM* | -5.2%
O=C(NCc1cccnc1)C(=O)Nc1cc2c3c(c1)CC(=O)N3CCC2 | -6 | 9 | 4 | 5 | 5.3 | nt | 0.0%
CC(C)(CO)Nc1nc(N2CCCC2)nc(N2CCCC2)n1 | -1 | -23 | -9 | 5 | -3.0 | 17% | 3.6%
CCc1ccc(-c2cc(C)no2)cc1S(=O)(=O)Nc1cc(C)ccn1 | 5 | -11 | 2 | 5 | -4.0 | 15% | 3.7%
CC(C)CCN(C(=S)Nc1cccc(F)c1)C1CCN(C(C)C)CC1 | 11 | -13 | 2 | 1 | -5.8 | 10% | -1.1%
CCC1(CC)Cc2ccccc2C(C2=C(O)CC(C)(C)CC2=O)=N1 | 2 | -18 | 5 | 6 | -4.1 | 9% | 2.2%
CCOC(=O)CC(=O)c1cc(OC)c(OC)c(OC)c1 | 2 | -7 | 9 | -4 | 0.6 | -4% | 1.0%
Cc1cc(NC(=O)C(C)SCC(=O)Nc2ccccc2C(C)(C)C)no1 (stereo not drawn) | 3 | 9 | 8 | 2 | 3.1 | nt | 2.5%
COc1ccc(OC)c(C2C(C(=O)c3ccc(C)o3)=C(O)C(=O)N2CCN2CCOCC2)c1 (stereo not drawn) | -2 | 1 | -9 | 10 | -4.5 | 1% | 2.5%
CCC(=O)N1CCc2cc(S(=O)(=O)CCC(=O)N3CCN(c4ccccc4F)CC3)ccc21 | 3 | -8 | -12 | 2 | -0.2 | 3% | 0.8%&0.7%

Next part
SMILES | Six1-Eya2 blk | D2 potentiator | TRPV1 potentiator | CtBP-E1A inh | D2 agonist | Sfp PPTase inh | PINK1 modulator
Cc1ccc(C)c(S(=O)(=O)N2CCCOC2CNC(=O)C(=O)NCCN2CCOCC2)c1 (stereo not drawn) | 3 | 3 | 3 | 6 | -2.1 | 9% | 2.8%
CC(=O)Nc1nc(COc2ccc3ccccc3c2)cs1 | -4 | -19 | 29 | 3 | 4.5 | 15% | nt
Cc1cc(C)n(-c2ncc3c(n2)N(CCO)CCOC3=O)n1 | 0 | -4 | ? | nt | -3.9 | -16% | 0.5%
O=C1NC[C@H](CCCCN2C[C@H](Cc3ccccc3)N(Cc3ccccc3)C(=O)C2=O)N(CCC2CCCCC2)C1=O | -1 | nt | nt | 5 | nt | nt | 0.2%
O=C(Cc1nc2ccccc2[nH]1)c1ccc(Br)cc1 | -4 | -3 | -8 | -1 | -1.6 | 24% | 0.9%
C=C1CCN([C@@H](CC(C)C)C(=O)NCc2ccccc2)S(=O)(=O)c2ccccc21 | 3 | -9 | nt | 9 | -3.0 | nt | -0.5%
COc1cc(/C=C2/NC(=O)N(CC(=O)Nc3cccc(C)c3)C2=O)ccc1OCC(N)=O | 4 | 2 | -3 | 0 | -0.2 | 3% | 1.8%
CN(c1ccccc1)S(=O)(=O)c1cccc(NC(=O)COc2cccc([N+](=O)[O-])c2)c1 | -10 | -11 | 11 | 4 | 0.7 | nt | 1.5%
O=[N+]([O-])c1ccc(O)c(/C=N/Nc2ccccc2Cl)c1 | 0 | -10 | -13 | nt | -4.6 | 8% | ?
O=C(CNS(=O)(=O)c1ccc2c(c1)OCCCO2)N1CCN(Cc2ccccc2)CC1 | 4 | -2 | 8 | 0 | -4.2 | nt | -1.4%
